Calb biofilm kill – clotrimazole potentiators killing C. albicans biofilm, primary screen, 4-compound mixtures; C. albicans biofilm persisters + clotrimazole, fluorescence viability; primary screen in compound mixtures of four per well; inhibition, % at 7.6 µM; hit rate 0.02% among 120,000;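 active means inhibition above 30.3% in the primary screen of four-compound pools, then above 30% when the compound was retested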;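 further: compounds exposed to preformed 24 h biofilms for 48 h; the number belongs to the whole pool; some results filed as inactive read as strong as hits; inactives centre near 12; 0% = biofilm with clotrimazole alone and 100% = kill control; retested singly at about 60 µM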
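System: C. albicans CAF4-2 wild-type biofilms; Medium: RPMI/MOPS medium, pH 7.0; Reagent: Clotrimazole, 50 µg/mL; Times: biofilm formation 24 h, compound exposure 48 h, 37 °C; Detection: 2-h Alamar Blue fluorescence, 535/590 nm excitation/emission; Evaluation: percent inhibition of biofilm viability.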
* = called active by the depositor. Some of the compounds tested; count on the stated rates, not on these rows.

SMILES,Calb biofilm kill
CCCCNC(=O)CC1S/C(=N/N=C/c2ccc(OC)cc2)NC1=O (centres undefined),7
COc1ccc(-c2csc3nc(-c4cccnc4)nc(N4CCC(C(N)=O)CC4)c23)cc1OC,3
COc1ccc(N2CCN(C(=S)NCc3ccccc3)CC2)cc1,-11
CCC(=O)NC(=S)Nc1ccc(NC(=O)c2ccc(OC)cc2)cc1,21
NC(=O)C(CC(=O)O)NC(=O)[C@@H]1CCCCNc2c(I)cc([N+](=O)[O-])cc2C(=O)N[C@@H](CO)C(=O)NCC(=O)N1 (some centres undefined),13
Cc1ccc2nc(-c3cccs3)oc(=O)c2c1,5
O=C(c1ccccn1)C1CCCN(Cc2nc(Cc3cccc(F)c3)no2)C1 (centres undefined),24
OCC1(CCOc2ccccc2)CCN(C2Cc3ccccc3C2)CC1,6
CC1CN(C)C(C)C/C1=N/Oc1ccccc1[N+](=O)[O-] (centres undefined),21
COc1nc(N)c(C#N)c(-c2ccc(N(C)CCC#N)cc2)c1C#N,-1
O=C(CC1SC(=O)N(Cc2ccc(Cl)cc2)C1=O)Nc1nccs1 (centres undefined),17
COC(=O)Cn1cc(/C=C(/C#N)C(=O)N2CCOCC2)c2ccccc21,18
Oc1ccccc1N1CCN(c2nc(-c3cccs3)nc3ccccc23)CC1,10
CCOC(=O)CCC(=O)Nc1cccc([N+](=O)[O-])c1,21
CC(=O)Nc1ccc(S(=O)(=O)Nc2nc3ccccc3nc2Nc2cccc(O)c2)cc1,30
S=C(Nc1ccccc1)c1ccccn1,17
COc1ccc(OC)c(CN2CCN(CCc3ccccc3)C(CCO)C2)c1 (centres undefined),4
COc1ccc(NC(=O)C2CCN(C(=O)Cc3ccccc3)CC2)c(OC)c1,27
CCCCNC(=S)Nc1cccc2cnccc12,13
O=[N+]([O-])c1ccc(N2CCOCC2)cc1SCc1ccco1,12
O=C(O)c1ccc2c(c1)C(=O)N(c1cccc(-c3nc4ccccc4s3)c1)C2=O,29
CCC1C(=O)N=C(SCC(=O)Nc2ccccc2)NC1=O (centres undefined),11
Cc1ccccc1OCC(=O)Nc1nnc(-c2ccncc2)s1,13
CCOCCOC(=O)C(C)Oc1ccc(Oc2nc(Cl)ccc2Cl)cc1 (centres undefined),8
Cc1ccc(S(=O)(=O)N(C)C)cc1NC(=S)NC1CCCC(C)C1C (centres undefined),18
CC1CCN(C(=O)c2ccc(CSc3nc4ccncc4n3Cc3ccc(F)cc3)cc2)CC1,1
O=C(Nc1cc(S(=O)(=O)N2CCCCC2)ccc1N1CCCCC1)C1CC1,15
Cc1ccc(NC(=S)NCc2ccco2)c(C)c1,17
COc1cc(NC(=S)N2CCCCC2C)c(OC)cc1Cl (centres undefined),21
CCc1cc2c(=O)c(-c3cnn(-c4ccccc4)c3)c(C)oc2cc1OCC(=O)Nc1ccc(F)c(F)c1,13

Additional records.
SMILES,Calb biofilm kill
CNS(=O)(=O)c1cccc(C(=O)OCC(=O)Nc2ccccc2F)c1,10
O=C1OC(/C=C/c2ccc(Cl)cc2)=NC/1=C/c1ccco1,11
CC(C)N(Cc1nc(-c2ccc(Cl)cc2)no1)Cc1nccn1C,-1
NC(=O)c1nnsc1Sc1c(C(N)=O)nnn1-c1cccc(N)c1,10
COc1cccc(COCC(O)Cn2cnc3cc(C)c(C)cc32)c1 (centres undefined),10
O=C(c1ccccc1)N(C1=NCCCCS1)c1ccccc1,17
Cc1cc(Nc2ccccc2O)c2ccccc2n1,6
Cc1ccccc1NC(=O)Cn1c(NCC(C)O)nc2ccccc21 (centres undefined),17
O=C(COC(=O)C12CC3CC(CC(C3)C1)C2)Nc1nccs1,4
Cc1cccc(NC(=O)COC(=O)c2cccc3c2C(=O)c2ccccc2C3=O)c1C,15
O=C(c1ccc(COc2ccc(Cl)cc2)cc1)N1CCCCC1,14
COc1ccc(C2=NNC(=O)CC2)cc1,8
Cc1cc(=O)oc2cc(OCc3ccc(C(=O)OCC(=O)Nc4ccccc4OC(F)F)cc3)ccc12,10
Cc1ccc(CNC(=O)[C@H](C)[C@H]2C[C@]2(C)[C@H](NC(=O)OCc2ccccc2)c2ccccc2)o1,-2
c1ccc2c(N3CCOCC3)nc(N3CCOCC3)nc2c1,10
CC1(C)Cc2c(cnn2-c2ccccc2)-c2c1c1ccccc1n2CC(O)CCl (centres undefined),13
CCOc1ccccc1NC(=O)C(=O)N/N=C/c1ccc([N+](=O)[O-])cc1,17
Oc1ccc(Cl)cc1CNn1cnnc1,12
COc1cc(/C=C/C(=O)OCC(=O)N2CC3(C)CC2CC(C)(C)C3)ccc1O (centres undefined),-4
O=C(CN1CCc2ccccc2C1)Nc1cc(S(=O)(=O)N2CCOCC2)ccc1N1CCCC1,16
Cc1ccc(OCC(=O)NCc2ccco2)c([N+](=O)[O-])n1,-12
CCCCNS(=O)(=O)c1ccc(S(=O)(=O)N2CCC3(CC2)OCCO3)cc1,-1
Fc1cccc(CCN2C(=S)NC[C@@H]2Cc2ccccc2)c1,21
CCOC(=O)N1CCN(C(=O)CCCCCn2c(=S)[nH]c3cc4c(cc3c2=O)OCO4)CC1,4
O=C(COC(=O)c1ccccc1C(=O)c1ccc(Cl)cc1)NCC1CCCO1 (centres undefined),11
COc1cc(N=CC2=C(O)c3ccccc3C2=O)cc(OC)c1,22
Cc1cccc(-c2nc(C#N)c(NCc3ccco3)o2)c1,15
O=C(COC(=O)/C=C/c1ccc2c(c1)OCO2)NC1CCS(=O)(=O)C1 (centres undefined),22
CCOC(=O)C1=NOC2COC3(CCN(c4ncccn4)CC3)OCC12 (centres undefined),12
Cc1cc(C(=O)Nc2c(F)c(F)c(F)c(F)c2F)n(-c2ccccc2)n1,15

Additional results.
SMILES,Calb biofilm kill
CC(C)(C)NC(=O)CN(C(=O)CS(=O)CC(=O)Nc1ccc(F)cc1)c1ccc2c(c1)OCCO2 (centres undefined),11
O=C(CN1CCCCCC1)N/N=C/c1cccc(Cl)c1Cl,9
CCc1cc2c(NCC3CCCO3)nc(C)nc2s1 (centres undefined),14
CCOc1ccccc1C(=O)N[C@H](C(=O)Nc1ccc(OC)c(S(=O)(=O)N2CCOCC2)c1)C(C)C,15
CCCOc1ccc(N2CC(C(=O)Nc3ccc(N4CCOCC4)cc3)CC2=O)cc1 (centres undefined),26
COc1ccc(OC)c(-c2csc(N(CC3CCCO3)C(=O)C3CCCCC3)n2)c1 (centres undefined),3
CCOC(=O)C1=C(N)n2c(s/c(=C\c3ccncc3)c2=O)=C(C(=O)OCC)C1c1ccncc1 (centres undefined),8
CN1CCN(CCc2nc3cc(NC(=O)c4ccco4)ccc3n2C)CC1,34
Cc1ccc(N2CN(Cc3ccco3)CNC2=S)cc1,14
O=C(CCCn1c(=S)[nH]c2ccccc2c1=O)NCCSCc1ccccc1,16
COc1cc(/C=N/Nc2cccc3cccnc23)cc(OC)c1O,7
CCOc1ccc(OCC)c(NC(=O)CN(C)S(=O)(=O)c2ccc3nc(C)sc3c2)c1,18
CC(C)CC(=O)NCc1ccc2[nH]c3c(c2c1)CCCC3,8
CC(=O)Nc1ccc(S(=O)(=O)NNC(=O)c2ccc(S(=O)(=O)N3CCCCC3)cc2)cc1,-3
COc1ccccc1NC(=O)C(=O)N(c1cccnc1)C(C(=O)NC(C)(C)C)c1ccccc1 (centres undefined),14
CCN(CC)S(=O)(=O)c1cc(NC(=O)CCCOc2ccc(C(C)=O)cc2)ccc1C,12
COc1cc2nc(Cl)nc(N3CCOCC3)c2cc1OC,5
Cc1ccccc1-c1n[nH]c(=S)n1/N=C/C=C/c1ccco1,12
O=C(CCCCCN1C(=O)c2cccc3cccc(c23)C1=O)NCc1cccnc1,-1
Cn1cc(Br)c(NS(=O)(=O)c2ccc(Cl)s2)n1,7
CCCNC(=O)CCc1c(C)nc2nc(C)nn2c1C,10
Cc1nnc(-c2ccc(Cl)cc2)nc1NCCN(C)C,5
COc1ccc(NC(=O)C(=O)N/N=C(\C)CC(=O)Nc2ccccn2)c(OC)c1,16
Cc1cc([N+](=O)[O-])nn1CC(=O)Nc1nc2ccccc2s1,20
COc1ccc(C2CC(c3ccccc3)=NN2C(=O)COC(=O)/C=C/c2ccc(O)c(OC)c2)cc1 (centres undefined),13
O=C(COC(=O)C1CC(O)CN1C(=O)Oc1ccccc1)c1ccc(Br)cc1 (centres undefined),18
O=C(O)/C=C/C(=O)Nc1ccc(-n2nccc2C(F)(F)F)cc1,13
CCSc1nnc(NC(=O)C2CC(=O)N(Cc3ccccc3)C2)s1 (centres undefined),10
CSc1nc(/C=C2\C=Nc3ccccc32)c(O)n1C,8
Cc1cc(N2CCCC2)nc(N2C3CCC2CC(O)(c2ccc(F)cc2)C3)n1 (centres undefined),19

An excerpt from above in order of SMILES length, highest first.
SMILES,Calb biofilm kill
CCN(CC)S(=O)(=O)c1cc(NC(=O)CCCOc2ccc(C(C)=O)cc2)ccc1C,12
Cc1cc(N2CCCC2)nc(N2C3CCC2CC(O)(c2ccc(F)cc2)C3)n1 (centres undefined),19
CSc1nc(/C=C2\C=Nc3ccccc32)c(O)n1C,8

6 compounds picked at random from the list so far:
SMILES,Calb biofilm kill
COc1ccc(OC)c(-c2csc(N(CC3CCCO3)C(=O)C3CCCCC3)n2)c1 (centres undefined),3
COc1cc2nc(Cl)nc(N3CCOCC3)c2cc1OC,5
O=C(O)/C=C/C(=O)Nc1ccc(-n2nccc2C(F)(F)F)cc1,13
Cc1cc(N2CCCC2)nc(N2C3CCC2CC(O)(c2ccc(F)cc2)C3)n1 (centres undefined),19
CCOC(=O)C1=C(N)n2c(s/c(=C\c3ccncc3)c2=O)=C(C(=O)OCC)C1c1ccncc1 (centres undefined),8
Cc1ccccc1-c1n[nH]c(=S)n1/N=C/C=C/c1ccco1,12

Following part.
SMILES,Calb biofilm kill
CCCc1nc(SCC(=O)Nc2ccc(N3CCOCC3)cc2)c2ccccc2n1,-9
CN(C(=O)CC1C(=O)NCCN1CC(c1ccccc1)c1ccccc1)C(C1CC1)C1CC1 (centres undefined),22
CCN(CC)CCN1C(=O)c2ccccc2NC1c1ccc(Br)cc1 (centres undefined),8
O=C(O)C1(S(=O)(=O)CCC(F)=C(F)F)CC1,2
CC(=O)Nc1ccc(C(=O)NCC(=O)OCc2ccccc2F)cc1,-3
Cc1sc2ncn(CC(=O)NCCCOC(C)C)c(=O)c2c1S(=O)(=O)N1CCN(c2ncccn2)CC1,1
CCCCNS(=O)(=O)/C=C/c1ccccc1,22
NS(=O)(=O)c1ccc(N/N=C/c2cn(-c3ccccc3)nc2-c2ccccc2)c([N+](=O)[O-])c1,2
CSc1nnc(C(C)(C)C)c(=O)n1/N=C/c1c(O)ccc2ccccc12,33
COc1cc(OC)c(N(C)S(=O)(=O)c2cccc(C(=O)NC(C)C3CC4CCC3C4)c2)cc1Cl (centres undefined),14
COc1ccccc1OC(=O)CCc1nc2ccccc2s1,11
Cc1ccc(/C=N/NC(=O)c2nnn(-c3nonc3N)c2CSc2ccc(Cl)cc2)cc1,19
CCCCn1c(N)c(-c2nc3ccccc3o2)c2c([N+](=O)[O-])nn(CC)c(=O)c21,8
Nc1nc(CCOc2ccc(F)cc2)cs1,6
CC1CCC(NC(=S)NCCN(C)C)CC1 (centres undefined),9
Fc1ccc(-n2c(Cn3nnc4ccccc43)n[nH]c2=S)cc1,14
CSc1ccc(CNCCCN(C)C)cc1,10
O=C(c1ccc(-n2cccn2)cc1)N1CCc2c([nH]c3ccccc23)C1c1ccccn1 (centres undefined),27
O=[N+]([O-])c1ccc(Cl)cc1Sc1ccccn1,-3
c1ccc(COc2cccc(CNCc3cccs3)c2)cc1,11
CC1=C(C(=O)OC2CCCCC2)C(c2cccs2)n2c(nc3ccccc32)N1 (centres undefined),12
Cc1ccc(C)c(N2CCN(c3ccncc3N)CC2)c1,16
CCN(CCn1cccn1)Cc1nc(-c2ccccc2)no1,11
Cn1c(=O)c(C(=O)COC(=O)c2cc(-c3ccccc3)nc3ccccc23)c(N)n(Cc2ccccc2)c1=O,0
O=C1c2ccccc2C(=O)C1C1=Nc2ccccc2NC(c2ccccc2)C1 (centres undefined),-5
O=C(CC1SCCNC1=O)Nc1ccc(Cl)cc1 (centres undefined),15
CNS(=O)(=O)c1cccc(C(=O)OCC(=O)Nc2ccc(-c3nc4ccc(C)cc4s3)cc2)c1,15
Cc1cc(C)cc(OCC(=O)OCC(=O)N2CC(=O)Nc3ccccc32)c1,-2
COc1ccc(-n2c(C)cc(-c3csc(N)n3)c2C)cc1,20
COc1ccc(CCNC(=O)c2ccccc2N(C)S(=O)(=O)c2ccccc2)cc1,12
Cn1c(SCC(=O)NC(=O)CN2CCCC2=O)nnc1-c1ccc(F)cc1,10
Cc1cc(Br)c(OCC(=O)NN)c2c1CCC2,11
Cc1ccc2c(c1)COc1c3ccc(C(=O)NCC4CC4)cc3nn1-2,11

Source: PubChem (PCMD)
